# D2 agonist – human D2 receptor agonism in beta-arrestin assay. 360,000 tested, 0.084% active. P14416. activation, % (no concentration beside the values). DiscoveRx PathHunter D2 beta-arrestin, luminescence, 90 min; 100% = 57 uM dopamine signal; in the data active = activation above about 40%; inconclusive = about 15% to 40%; inactive = below about 15%; further: compound concentration not given in the record; the text of the record calls up to 30% inactive
#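 DiscoveRx PathHunter D2 beta-arrestin cells (2,100/well) attached overnight, then compound-stimulated 90 min at 37 C in HBSS/10 mM HEPES/0.1% Tween-20 buffer; beta-galactosidase complementation read by luminescence after 1 h at ambient temperature. Dopamine 57 uM final (EC100) as control.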
# Six1-Eya2 blk – blocks human Six1 binding to Eya2; activity change, % (no concentration beside the values); 360,000 tested, 0.56% active; AlphaScreen GST-Six1/His-Eya2 binding, biochemical; stronger effect = lower value; control for the full effect not named in the record; in the data active = activity change below about -65%; inconclusive = about -30% to -65%; inactive = above about -30%; further: on the % scale 0 is the no-effect control and ±100 the full control effect; compound concentration not given in the record
# Target sequence (O00167 whole entry, looked up): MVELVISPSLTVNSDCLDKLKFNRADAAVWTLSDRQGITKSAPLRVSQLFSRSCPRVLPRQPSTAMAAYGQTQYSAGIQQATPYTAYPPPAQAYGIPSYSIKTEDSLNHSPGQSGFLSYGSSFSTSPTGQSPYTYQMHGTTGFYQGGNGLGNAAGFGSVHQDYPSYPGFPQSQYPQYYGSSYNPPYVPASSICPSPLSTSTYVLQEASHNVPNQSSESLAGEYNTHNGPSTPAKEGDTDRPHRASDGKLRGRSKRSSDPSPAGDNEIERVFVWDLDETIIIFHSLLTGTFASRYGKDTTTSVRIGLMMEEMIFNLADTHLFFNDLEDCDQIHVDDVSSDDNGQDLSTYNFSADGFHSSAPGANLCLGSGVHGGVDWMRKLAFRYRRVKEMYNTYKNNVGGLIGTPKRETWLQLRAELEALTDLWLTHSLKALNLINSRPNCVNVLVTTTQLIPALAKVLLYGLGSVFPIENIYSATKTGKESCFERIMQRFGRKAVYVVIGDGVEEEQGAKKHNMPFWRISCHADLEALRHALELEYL
# Target sequence (Q15475 whole entry, looked up): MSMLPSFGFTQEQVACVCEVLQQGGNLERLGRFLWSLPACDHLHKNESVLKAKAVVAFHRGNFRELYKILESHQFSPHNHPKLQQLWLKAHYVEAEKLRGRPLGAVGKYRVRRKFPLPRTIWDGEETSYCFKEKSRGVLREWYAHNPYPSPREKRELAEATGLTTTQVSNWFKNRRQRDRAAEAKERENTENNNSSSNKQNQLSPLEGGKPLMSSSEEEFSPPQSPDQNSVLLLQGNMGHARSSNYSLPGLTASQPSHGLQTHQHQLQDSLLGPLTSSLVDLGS
#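 AlphaScreen with GST-Six1 and His-Eya2 (5X mix: 250 nM and 500 nM), glutathione donor and nickel acceptor beads; buffer 50 mM Tris pH 8.0, 300 mM NaCl, 1 mM TCEP; 1 h at 37 C in the dark.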
# gsp antagonist – antagonizes gsp, the McCune-Albright syndrome mutation; gsp-mutant cells, cAMP HTRF, 30 min; control for the full effect not named in the record; Potency, µM (series often up to 76.9 µM), for inactives: at the highest dose activity change, negative = inhibition, usual class: inhibitors; 340,000 tested, 0.4% active; active = falling curve of any shape with a large fitted effect; inconclusive = falling curve, mostly with a smaller effect; inactive = flat or rising curve; cell line not stated here;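 further: intracellular cAMP measured with PDE inhibitor Ro 20-1724 present during compound exposure; potency means the concentration at half of the fitted maximal effect; on the % scale 0 is the no-effect control and ±100 the full control effect; nearly all actives have a fitted effect of over 65% in size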
#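 Cells, 2000/well, grown 16–24 h in DMEM 10% FBS with 0.5 mg/ml G418, then compounds plus […] (300 uM addition stock), 30 min at 37C. cAMP read by HTRF (cAMP-d2 and anti-cAMP antibody-K in lysis buffer) after 30 min RT.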
# gsp ag – agonists of gsp mutant (McCune-Albright syndrome). gsp mutant cells, cAMP HTRF, 30 min; control for the full effect not named in the record. Potency, µM (top dose mostly 76.9 µM), without a hit: top-dose activation (cAMP increase), actives largely listed as activators. 340,000 tested, 0.13% active; active = well fitted activation curve with a large enough effect; inconclusive = small, poorly fitted or top-dose-only effect, or another doubt; inactive = no such curve, though single readings can be large or run the other way; cell line not stated here;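 further: phosphodiesterase inhibitor Ro 20-1724 added with compounds to block cAMP breakdown; potency means the concentration at half of the fitted maximal effect; nearly all actives have a fitted effect of over 60% in size; about a fifth of the inactives were tested at one dose only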
#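 Cells in DMEM/10% FBS with G418 were pretreated with compounds in DMSO plus […] (300 uM stock) for 30 min at 37C. cAMP was measured by HTRF (cAMP-d2 plus anti-cAMP antibody-K) after 30 min at room temperature.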
# CtBP-E1A blk – inhibitors of CtBP/E1A interaction; AlphaScreen GST-E1A/His-CtBP binding, 1536-well; stronger effect = lower value; control for the full effect not named in the record; activity change, % (concentration not given with the values); 340,000 tested, 0.49% active; in the data active means activity change below about -65%; inconclusive means about -30% to -65%; inactive means above about -30%; further: on the % scale 0 is the no-effect control and ±100 the full control effect
#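 Protein mix (5X: 125 nM each GST-E1A, His-CtBP) was incubated with pinned compound 2 h at 37 deg C in dark, in 50 mM Tris pH 8.0 buffer with 300 mM NaCl. Glutathione donor and nickel acceptor beads followed; AlphaScreen signal read after 1 h.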
# D2 potentiator – potentiates the human D2 dopamine receptor allosterically; P14416; DiscoveRx D2 beta-arrestin cells, luminescence, 90 min; 100% = 57 uM dopamine signal; potentiation, % (no concentration beside the values); 360,000 tested, 0.23% active; active = potentiation of 50% or more; inconclusive = 30% to 50%; inactive = 30% or less;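 further: compound concentration not given in the record; tested on top of an EC20 dose of dopamine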
#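 PathHunter beta-arrestin assay in DiscoveRx D2 cells. Compounds were added with an EC20 of dopamine (50 nM final) for 90 min at 37 deg C. Luminescence was read 1 h after detection reagent, with 57 uM dopamine as the EC100 control.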
# Starred values were filed as active, the others as inactive; ? = inconclusive; / = no result given; [ ] = dose if it differs, or a comment. Rows were taken by chance. About 1.4% of those tested had a hit in this group.
mol	D2 agonist	Six1-Eya2 blk	gsp antagonist	gsp ag	CtBP-E1A blk	D2 potentiator
O=C(/C=C/c1c(Cl)cccc1Cl)NCCCn1ccnc1	-1.9	25	-3%	-10%[15.4 µM]	0	-14
OCC[C@H]1C[C@H](O)[C@@H](O)[C@]2(CCCCO2)O1	-3.2	-3	6%	-7%	-1	-4
O=C(N/N=C/c1ccncc1)c1nc2ccccc2c(=O)[nH]1	-6.5	-3	3%	-9%	/	-13
COc1ccc(C(=O)CSc2nnc(CNc3nc(-c4ccccc4)cs3)n2C)cc1	-2.1	-71*	?	?	-70*	-3
COc1ccc2nc(N/C(N)=N/S(C)(=O)=O)nc(C)c2c1	0.2	-1	19%	6%	8	-2
CC1(Oc2ccccc2)CCN(Cc2csc3ccccc23)C1 (stereo not drawn)	-5.5	15	/	/	17	-19
CCCCCCNc1nc(Cl)nc(NC(C)(C)CO)n1	-4.6	3	8%	-26%[15.4 µM]	-2	-10
O=C(O)C1CC=CCC1C(=O)NNS(=O)(=O)c1ccccc1 (stereo not drawn)	-1.0	3	7%	16%[15.4 µM]	-4	-3
CC(=O)c1cccc(NC(=S)NC2CC2)c1	-0.4	3	9%	18%	-3	-11
Cc1cccc(C(=O)N[C@H](C(=O)Nc2nc(C)cs2)C(C)C)c1	-1.6	-15	1%	-45%[inhibitor]	-2	-23
COc1ccccc1CNC(=O)CNC(=O)c1sc2ccccc2c1Cl	3.0	-2	-9%	25%	1	-11
COc1cccc(C(=O)N/N=C(\C)c2ccc(NC(=O)Cc3ccccc3)cc2)c1OC	-0.3	2	1%	20%	-2	2
OCCN1CCN(c2ncnc3c2c(-c2ccccc2)cn3-c2ccc(Br)cc2)CC1	6.3	-16	6%	-8%[15.4 µM]	3	-2
O=S(=O)(Nc1cccc(C(F)(F)F)c1)c1cccnc1	0.4	4	3%	-15%	2	-21
CCC1C(=O)N=C(SCC(=O)NC2CCCCC2)NC1=O (stereo not drawn)	-3.5	4	2%	3%	/	-9
COc1ccc(NC(=O)C(=O)NNC(=O)c2ccc(Cl)cc2Cl)cc1	2.4	3	1%	-10%	41	8
N#CCC(=O)Nc1ccc(C(=O)NCCC(c2ccccc2)c2ccccc2)cc1	-2.9	19	-5%	15%[15.4 µM]	6	-8
COc1cc(OC)cc(C(=O)N[C@H](C(=O)NC2=NCCS2)C(C)C)c1	-0.2	3	2%	16%	-3	-14
O=C(O)CCCC(=O)N1CCc2cc(S(=O)(=O)NCc3ccc(F)cc3)ccc21	-5.8	0	16%	-34%[inhibitor]	4	-7
CC(=O)c1c(C)[nH]c(C(=O)COc2ccc3c(C)cc(=O)oc3c2)c1C	2.8	0	9%	16%	5	-1
COc1cc(OC)c2cc[nH]c2c1	-0.8	-3	8%	-41%[inhibitor]	3	-7
COc1cc(/C=N/Nc2nc(Nc3ccc(C)cc3)nc(-n3nc(C)cc3C)n2)cc(OC)c1OC	-1.1	-23	-3%	-3%	-27	23
CCOC(=O)Cc1c(C)[nH]c(=S)[nH]c1=O	-4.8	5	11%	-1%	3	-2
COC(=O)c1cc(C)sc1NC(=O)C1CC=CCC1C(=O)O (stereo not drawn)	2.6	1	11%	?	5	-1
CC(=O)OCCN(C)c1cc(SC(C)C)c2nonc2c1[N+](=O)[O-]	2.9	-2	-16%	19%[15.4 µM]	5	-53
Cc1ccc(C)n1-n1c(C)nc2scc(-c3ccccc3)c2c1=O	0.8	-20	-10%	-2%	-18	1
COc1cc(NC(=O)CN2C(=O)COc3ccc(S(=O)(=O)N4CCCCC4)cc32)cc(OC)c1	-1.9	?	-6%	28%	-73*	0
CC1(C2CC2)NC(=O)N(CC(=O)Nc2ccc(Cl)c([N+](=O)[O-])c2)C1=O (stereo not drawn)	-0.9	-2	9%	12%	0	-6
CC(C)N(Cc1ccccc1)C(=O)c1ccc2c(c1)OCO2	-3.6	9	-4%	8%	5	7
O=S(=O)(Nc1cccc2ccccc12)c1ccccc1F	1.2	-7	-5%	4%	-10	4
CCn1c(SCC(=O)NC2CC2)nnc1-c1ccc(OC)cc1	-6.7	6	2%	?	13	-5
Cc1cccc(OCC(=O)Nc2cc(Cl)ccc2-n2cncn2)c1C	-1.7	6	-7%	2%[15.4 µM]	-4	-1
CN1C(=O)/C(=C/C=C2\SCCN2C)N(C)C1=S	-5.4	-8	?	3%[15.4 µM]	-5	-9
O=C(COC(=O)Cc1ccsc1)Nc1ccc(Cl)cc1F	0.2	4	8%	10%[15.4 µM]	5	4
CCOC(=O)Cn1cnc2c(sc3nc(C)cc(C)c32)c1=O	-4.7	10	2%	-22%	/	-16
COc1ccccc1NC(=S)N1CCCc2ccccc21	-2.9	-1	3%	14%[15.4 µM]	-6	-5
Cc1ccc(-n2ncc3c(N4CCC(C(N)=O)CC4)ncnc32)c(C)c1	1.7	-3	-14%	-1%	-12	-2
CCCCCCOC(=O)c1ccc(OC(=O)c2cccnc2)cc1	-3.9	8	-1%	-30%	5	-15
CC(C)c1cc(CNC(=O)CCc2nnc(CCCc3ccccc3)o2)on1	0.9	-3	?	-11%	/	-4
COC(=O)c1cccc(-n2c(C)cc(C=O)c2C)c1	2.4	-4	-9%	20%	-3	3
O=C(CSc1ncccn1)N1CCC(Cc2ccccc2)CC1	-1.5	-18	10%	-3%[15.4 µM]	14	-6
COc1ccc(N2C(=O)C(CC(=O)Nc3ccc(F)cc3)N(CCc3ccc(OC)c(OC)c3)C2=O)cc1 (stereo not drawn)	-5.5	-2	-4%	-4%	6	-5
Cc1ccn2cc(CCNC(=O)CC(C)(C)C)nc2c1	1.0	4	1%	?	3	0
N#CCS(=O)(=O)c1ccccc1	-4.0	4	6%	0%	0	-11
O=S(=O)(c1cc(Cl)ccc1Cl)N1CC2CCCN2c2ccc(C(F)(F)F)cc21 (stereo not drawn)	-3.9	0	?	-15%	-2	19
CC(=O)N/C(=C\c1ccccc1)C(=O)OCC(=O)Nc1cc(S(=O)(=O)N(C)C)ccc1C	-2.8	2	3%	-54%	-4	-34
C=CCc1ccc(OCCCCNC2CCCC2)c(OC)c1	1.2	-2	8%	-13%	-2	-22
CSc1ccc(Cl)c(C(=O)OCC(=O)N2CCN(c3ccccc3)CC2)c1	-1.6	-11	-11%	?	-3	-22
Cc1csc2c(N3CCN(C(=O)NC(C)(C)C)CC3)ncnc12	-2.0	6	-9%	-7%[15.4 µM]	-8	3
CN(C)C(CNC(=O)c1cccc(S(=O)(=O)N2CCN(c3ccccc3)CC2)c1)c1ccccc1 (stereo not drawn)	2.8	-7	-4%	-12%	-14	-6

# Other structures:
mol	D2 agonist	Six1-Eya2 blk	gsp antagonist	gsp ag	CtBP-E1A blk	D2 potentiator
Cc1c(CN2CCC(CO)(Cc3cccc(C(F)(F)F)c3)CC2)c2ccccc2n1C	-5.5	-19	16%	-3%	-2	-46
CCc1ccc(OC(=O)c2cncc(Br)c2)cc1	1.1	26	-10%	-5%[15.4 µM]	7	-5
COc1ccc2c3c(cccc13)OCC2=O	4.8	3	-2%[15.4 µM]	1%	10	19
COC(=O)c1ccc(NC(=S)N2CCN(C(=O)c3ccco3)CC2)cc1	-1.0	1	5%	?	-2	2
COc1ccc(NC(=O)C2CC2)cc1S(=O)(=O)N1CCOCC1	-4.0	5	4%	14%	/	-4
COc1ccccc1CNC(=O)CN1C(=O)COc2ccc(S(=O)(=O)NC3CCCC3)cc21	-0.9	4	-9%	?	1	1
COc1ccc(CCN(C)C2CCCN(C(=O)CCC(F)(F)F)C2)cc1OC (stereo not drawn)	6.9	3	-18%	13%[15.4 µM]	3	-12
CCOC(=O)c1ccccc1NC(=O)[C@@H]1CCCN1C(=O)OC(C)(C)C	-2.9	0	1%	21%	/	-2
CC(C)Cc1nnc(NS(C)(=O)=O)s1	0.9	-3	-24%	8%	7	-2
Cc1ccc2c(c1)C1CN(C)CCC1N2C(=O)COc1ccc(N(C)C(=O)C(C)(C)C)cc1 (stereo not drawn)	-2.7	7	-5%	-3%[15.4 µM]	-20	-13
CCOc1ccc(NC(=S)N(C)C)cc1	2.2	-1	2%	2%[15.4 µM]	6	2
COc1ccccc1N1CCN(C2CCCN(Cc3cc(F)cc(F)c3)C2)CC1 (stereo not drawn)	-4.0	-15	8%	-10%	-21	-4
CSc1ccccc1C(=O)Nc1ccc(C)cc1C	-3.4	14	-3%	18%[15.4 µM]	-2	-16
Cc1ccc(CCNC(=O)c2ccc(NC3=NC4CS(=O)(=O)CC4S3)cc2)cc1 (stereo not drawn)	-3.5	2	19%	?	12	-5
CCc1ccc(CN2CCC(C(=O)Nc3ccc(-n4nc(C)cc4C)cc3)CC2)o1	-5.8	-9	17%	-13%	-9	-29
O=C(NCC1CCCO1)c1ccc(C(=O)NCC2CCCO2)cc1 (stereo not drawn)	-1.9	-1	5%	6%	0	-9
COc1ccc(NS(=O)(=O)c2ccc3oc(Nc4ccc5c(c4)OCCO5)nc3c2)cc1	2.5	-27	-11%	-46%[inhibitor]	-19	-3
COc1ccc(O)c(C(=O)C2c3ccccc3C(=O)N2c2ccc(C)cc2)c1 (stereo not drawn)	4.5	4	-19%	7%[15.4 µM]	0	24
O=C(CCS(=O)(=O)c1ccccc1)NCc1ccccc1	6.2	-2	2%	?	-2	-32
O=C(COc1ccccc1)Nc1ccc(Cl)cn1	-0.8	1	/	0%[15.4 µM]	0	-5
Cc1ccc(C(=O)Nc2ccc(N3CCN(C)CC3)nc2)cc1	-5.9	-1	10%	7%[15.4 µM]	5	-1
N#C/C(C(=O)NCc1ccccc1)=C1/N=C(NC(=O)c2cccs2)c2ccccc21	3.1	-24	-11%	?	-18	4
CCCc1nnc(NC(=O)CCC(=O)N2CCN(Cc3ccc(C)cc3C)CC2)s1	-3.4	2	-3%	12%	1	-21
CNS(=O)(=O)c1cccc(C(=O)NCC(C)(C)N2CCCCC2)c1	-3.0	-2	-7%	12%[15.4 µM]	2	-3
O=C(NCCC1=CCCCC1)C1CCN(c2nc3ccccc3o2)CC1	-0.6	1	-6%	-48%[inhibitor]	4	22
C[C@@H]1CN([C@@H](C)CO)C(=O)c2cc(-c3ccncc3)cnc2O[C@H]1CN(C)C(=O)c1cccc(F)c1	-2.2	-1	/	?	4	2

# Compound activity deposited in PubChem BioAssay by National Center for Advancing Translational Sciences (NCATS).
